NS1 function inh: qHTS Assay for Inhibitors of Influenza NS1 Protein Function. AID 2326, 2010. Potency, µM (doses to about 46.1 µM), for the others: at the highest dose activity, positive = more growth. S. cerevisiae slowed by influenza A NS1, growth recovery by OD600. 270,000 compounds, 0.4% hits; also: actives are rising curves; nearly all actives have a fitted effect of over 50% in size
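In this qHTS, NS1 from influenza A is expressed in budding yeast, where it slows growth. Cells are switched from glucose to 2% galactose medium (pH 6.0, -URA), treated with compound, and growth recovery is read at OD600.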
StopGo reporter: High Throughput Screening for Foot and Mouth Disease Virus Antivirals | AID 1159524, 2015 | 410,000 compounds, 1.2% hits | human cells with a luciferase reporter of 2A StopGo recoding; control for the full effect not named in the record | Potency, µM (top dose mostly 57.9 µM), for the others: at the top dose signal change, negative = less light; active = well fitted falling curve with a large enough effect; inconclusive = small, poorly fitted or top-dose-only effect; inactive = no such curve, though single readings can be large or run the other way; tested in HEK293T cells; also: % is scaled to controls: 0 for no effect and ±100 for the full control effect; nearly all actives have a fitted effect of over 45% in size; luciferase light after 4 h
Cruzain inh Det: qHTS Assay for Promiscuous and Specific Inhibitors of Cruzain (with detergent); 200,000 compounds, 0.43% hits; Potency, µM, for inactives: max response, negative = inhibition, most hits filed as inhibitors; Cruzipain (Trypanosoma cruzi), P25779; purified cruzain, Z-FR-AMC fluorescence, 0.01% Triton; active = well fitted curve in the direction sought with a large enough effect; inconclusive = small, poorly fitted or top-dose-only effect, or another doubt; inactive = no such curve, though single readings can be large; an effect the other way counts as inactive or inconclusive;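 also: plate controls were neutral wells for no effect and buffer without enzyme for full effect; nearly all actives have a fitted effect of over 40% in size; top concentration of the series not given in the record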
Target sequence (P25779 123-467 limits assumed): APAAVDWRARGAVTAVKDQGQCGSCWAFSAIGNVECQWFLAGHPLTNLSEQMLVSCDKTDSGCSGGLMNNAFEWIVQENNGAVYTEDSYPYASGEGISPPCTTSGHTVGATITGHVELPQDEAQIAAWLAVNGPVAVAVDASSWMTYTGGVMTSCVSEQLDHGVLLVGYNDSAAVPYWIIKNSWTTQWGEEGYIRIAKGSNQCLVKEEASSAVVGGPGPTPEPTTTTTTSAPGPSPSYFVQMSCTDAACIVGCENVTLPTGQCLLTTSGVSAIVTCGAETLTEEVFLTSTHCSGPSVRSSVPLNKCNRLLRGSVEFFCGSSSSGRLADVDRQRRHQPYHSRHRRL
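Sodium acetate buffer (100 mM, pH 5.5) containing 5 mM DTT and 0.01% Triton X-100 hosted 1.5 nM cruzain and test compound for 15 min at room temperature. Cleavage of 2 uM Z-FR-AMC was then tracked by fluorescence.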
Cruzain inh noDet: qHTS Assay for Promiscuous and Specific Inhibitors of Cruzain (without detergent) | AID 1476, 2009 | Cruzipain (Trypanosoma cruzi), P25779 | 200,000 compounds, 2.3% hits | Potency, µM, for inactives: max response, negative = inhibition, actives largely listed as inhibitors | purified cruzain, Z-FR-AMC fluorescence, no detergent; active = well fitted curve in the direction sought with a large enough effect; inconclusive = small, poorly fitted or top-dose-only effect, or another doubt; inactive = no such curve, though single readings can be large; an effect the other way counts as inactive or inconclusive;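 also: plate controls were enzyme without inhibitor for no effect and buffer without enzyme for full effect; nearly all actives have a fitted effect of over 40% in size; top concentration of the series not given in the record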
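Purified cruzain at 1.5 nM, pre-incubated 15 min with compound at room temperature in 100 mM sodium acetate pH 5.5, 5 mM DTT, 0.00005% Triton X-100. Reaction started with 2 uM Z-FR-AMC; AMC fluorescence increase over 60 s gives rate.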
LASV entry inh: qHTS for Inhibitors of binding or entry into cells for Lassa Virus | Potency, µM (titrated, usually from 37.9 µM), without a hit: at the highest dose activity change, negative = inhibition, usual class: inhibitors | Lassa virus pseudotype entry inhibition, cell reporter; control for the full effect not named in the record | 300,000 compounds, 1.2% hits | AID 540256, 2011; active means well fitted inhibition curve with a large enough effect; inconclusive means small, poorly fitted or top-dose-only effect, or effect the other way; inactive means flat fitted curve, though single readings scatter; tested in HEK293 cells; also: % is scaled to controls: 0 for no effect and ±100 for the full control effect; nearly all actives have a fitted effect of over 50% in size; luciferase read-out
Marburg entry inh: qHTS for inhibitors of binding or entry into cells for Marburg Virus | 300,000 compounds, 1.8% hits | Marburg virus pseudotyped entry inhibition, cell reporter; control for the full effect not named in the record; about a third of the inactives were read at about 46 µM | Potency, µM (series often up to 37.8 µM), inactives show top-dose activity change, negative = inhibition, hits mostly inhibitors; active = well fitted inhibition curve with a large enough effect; inconclusive = small, poorly fitted or top-dose-only effect, or effect the other way; inactive = flat fitted curve, though single readings scatter; tested in HEK293 cells; about a fifth of its hits are not listed in these tables; also: % is scaled to controls: 0 for no effect and ±100 for the full control effect; luciferase read-out
RE007 growth inh: qHTS Assay for Inhibitors of the HIV-1 protein Vpr; S. pombe RE007 Vpr strain, BacTiter-Glo ATP luminescence, 24 h; control for the full effect not named in the record; Potency, µM (series often up to 92.2 µM), without a hit: top-dose activity change, negative = less growth; 360,000 compounds, 0.21% hits; AID 651644, 2012; active = well fitted falling curve with a large enough effect; inconclusive = small, poorly fitted or top-dose-only effect; inactive = no such curve, though single readings can be large or run the other way;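 also: % is scaled to controls: 0 for no effect and ±100 for the full control effect; nearly all actives have a fitted effect of over 50% in size; the assay follows cell death caused by Vpr and the record does not say whether a fall means rescue or toxicity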
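Fission yeast strain RE007, carrying one chromosomally integrated HIV-1 vpr copy, was seeded at OD 0.01 in PMG+AL medium with 23 nL pinned compound. After 24 h at 30 °C and 99% humidity, viability was read by BacTiter-Glo luminescence.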
SARS PLP yeast: qHTS of Yeast-based Assay for SARS-CoV PLP; Potency, µM (highest dose often 32.9 µM), for the others: at the highest dose activity, positive = growth rescue; AID 485353, 2010; S. cerevisiae expressing SARS-CoV PLpro, growth rescue; control for the full effect not named in the record; 330,000 compounds, 0.19% hits; also: 0% is about no effect; nearly all actives have a fitted effect of over 55% in size; growth read by luminescence after 48 h
* marks the source's active call; other numbers are inactive results; ? = inconclusive; . = not tested or not shown; [ ] = dose if it differs, or a comment. Unless noted, calls follow the shape of the dose curve; as a rule, active means well fitted rising curve with a large enough effect; inconclusive means small, poorly fitted or top-dose-only effect; inactive means no such curve, though single readings can be large or run the other way. Potency is read from the fitted curve at half-maximal effect. The order is random; about 4.5% have a hit in one of these screens.

Order of values: NS1 function inh	StopGo reporter	Cruzain inh Det	Cruzain inh noDet	LASV entry inh	Marburg entry inh	RE007 growth inh	SARS PLP yeast
- CCOc1ccc2[nH]c(C(=O)N/N=C/c3ccccc3OC)cc2c1
    0.8%	-13.2%	.	.	?	?	-0.1%	-2.0%
- Cc1nn(-c2ccc(N3CCCCC3)nn2)c(C)c1CCC(=O)Nc1ccccc1F
    -19.4%	-14.4%	.	.	.	.	4.8%	-4.5%
- CN(C(=O)CCc1nnc(CCCCc2ccccc2)o1)C1CCOCC1
    0.5%	0.0%	.	.	.	.	-2.5%	0.8%
- Cc1nc(-n2nc(C)c(Cc3ccc4c(c3)OCO4)c2C)sc1C(=O)Nc1cccc(Cl)c1
    .	?	-0.3%	-8.3%	5.5%[46.1 µM]	8.0%[46.1 µM]	.	.
- COC(=O)C1=C(NC(C)=O)CCS1
    2.3%	-16.1%	-2.2%	-8.9%	7.9%	11.8%	-8.6%	?
- CCN(CC(=O)Nc1ccc(NC(C)=O)cc1)C(=O)CSc1ncnc2sc(C)c(C)c12
    .	?	.	.	0.4%	-12.4%	0.6%	.
- CCn1c(=O)c(=O)[nH]c2cc(C(=O)NC(C)c3ccc(S(N)(=O)=O)cc3)ccc21 (stereo not given)
    6.2%	-1.6%	.	.	.	17.3%[46.1 µM]	-3.5%	1.1%
- CCOC(=O)c1c(C)[nH]c(C(=O)CSc2nnc(-c3ccncc3)n2CC)c1C
    -19.2%	.	-3.6%	2.5%	-8.8%	-1.2%	-12.9%	-2.2%
- Cc1nn(C)c(C)c1CN(C)C(=O)C1CCC(=O)N(C2CCCCCC2)C1 (stereo not given)
    -1.1%	-12.3%	.	.	-3.7%	-0.9%	6.0%	-3.2%
- CCN(c1cccc(C)c1)S(=O)(=O)c1nnc(NC(=O)c2ccccc2Cl)s1
    .	-15.0%	-2.9%	-1.3%	-6.5%[46.1 µM]	.	.	.
- COc1cc(NS(=O)(=O)c2ccc(N/C=C\C(=O)c3ccc(OC)c(OC)c3)cc2)nc(OC)n1
    17.4%	48.2%[activator]	-6.6%	?	6.5%	11.5%	-1.7%	10.1%
- CCc1nn2c(=O)cc(COC(=O)c3ccccc3NC(=O)COc3ccc(C)c(C)c3)nc2s1
    .	-9.1%	0.0%	-1.2%	-2.7%[46.1 µM]	.	.	.
- Cc1cc(O)c(C=Nc2ccc(Cl)cn2)c(=O)o1
    14.5%	-27.0%	-1.3%	-4.7%	10.5%	-13.1%	-28.6%	-6.2%
- Cc1cccc(N2NC(=O)/C(=C/c3ccc(-c4ccc(Cl)c(C(=O)O)c4)o3)C2=O)c1
    .	-7.3%	.	.	1.1%	8.0%[46.1 µM]	10.3%	2.9%
- COc1ccc2c(c1)c1c(c(=O)n(CCc3ccccc3)c(=O)n1Cc1cccc(Cl)c1)n2C
    .	-18.2%	-0.1%	-7.0%	12.8%[46.1 µM]	.	.	.
- Cc1c(-c2ccccc2)c(=O)oc2ccc(O)cc12
    -13.8%	30.2%[activator]	.	.	.	.	-5.0%	-8.3%
- CC(C)(C)C(=O)Nc1ccccc1C(=O)NCc1ccco1
    -2.1%	-14.0%	0.0%	8.0%	17.6%	-4.8%	3.5%	5.7%
- CCOC(=O)c1c(C)oc2nc(C)nc(N3CCN(c4cc(Cl)ccc4C)CC3)c12
    .	?	-0.9%	-3.6%	-2.8%[46.1 µM]	.	.	.
- CCOc1ccc(CNC(=O)CCC(=O)n2nc(C)c3ccccc32)cc1
    -10.4%	1.6%	.	.	.	.	-22.0%	-3.5%
- Cc1ccn(-c2cc(O)c(-n3ccc(C)n3)cc2O)n1
    5.3%	34.6%[activator]	.	.	.	.	-0.1%	-5.8%

Some of the entries so far, with each value named:
SMILES: Cc1c(-c2ccccc2)c(=O)oc2ccc(O)cc12
  NS1 function inh = -13.8% | StopGo reporter = 30.2%[activator] | Cruzain inh Det = . | Cruzain inh noDet = . | LASV entry inh = . | Marburg entry inh = . | RE007 growth inh = -5.0% | SARS PLP yeast = -8.3%

SMILES: CCOc1ccc2[nH]c(C(=O)N/N=C/c3ccccc3OC)cc2c1
  NS1 function inh = 0.8% | StopGo reporter = -13.2% | Cruzain inh Det = . | Cruzain inh noDet = . | LASV entry inh = ? | Marburg entry inh = ? | RE007 growth inh = -0.1% | SARS PLP yeast = -2.0%

Next part
Order of values: NS1 function inh	StopGo reporter	Cruzain inh Det	Cruzain inh noDet	LASV entry inh	Marburg entry inh	RE007 growth inh	SARS PLP yeast
- O=C(CNC(=O)c1ccc(F)cc1)c1ccc(Cl)cc1
    -12.8%	7.9%	.	.	?	?	35.9%	4.3%
- CC(C)CNC(=O)c1ccccc1NC(=O)c1ccc(CSc2ccccc2)cc1
    -4.7%	-16.9%	-7.0%	-10.5%	8.5%	-26.3%	5.3%	-34.7%
- Cc1nonc1NC(=O)CSc1nc(CCC2CCCC2)nc2ccccc12
    -7.4%	6.7%	.	.	.	.	17.9%	1.6%
- CC(CN1CCCCC1)OC(=O)c1cc2ccccc2o1 (stereo not given)
    4.2%	-3.2%	1.1%	-1.3%	-1.4%	-5.4%	-8.0%	2.9%
- Cc1ccc(CNC(=O)C2CCN(S(=O)(=O)c3ccc4c(c3)CC(C)N4C(=O)C3CCC3)CC2)o1 (stereo not given)
    16.5%	?	.	.	.	.	-11.7%	1.9%
- CC(=O)N1CCN(c2ccc(NC(=O)c3ccccc3Br)cc2Cl)CC1
    -14.2%	-8.3%	-1.4%	-5.5%	-20.5%	5.4%[46.1 µM]	-6.1%	1.4%
- O=C(NNc1nc(-c2ccccc2)c2cc(Br)ccc2n1)c1ccc(S(=O)(=O)N2CCCCC2)cc1
    ?	-7.3%	-5.0%	25.1µM*	14.3%	?	9.6%	-5.9%
- CC(C)(C)NC(=O)Cc1ccc(S(=O)(=O)N2CCCC2)s1
    11.2%	-6.5%	-5.7%	-4.0%	14.4%	1.9%	18.1%	3.9%
- CC1(c2ccccc2)NC(=O)N(CC(=O)Nc2ccc3c(c2)OCO3)C1=O (stereo not given)
    19.2%	6.6%	-0.3%	-12.5%	-1.1%	3.7%	3.9%	-1.8%
- O=S(=O)(NCC1CCN(Cc2ccccc2)CC1)c1ccccc1C(F)(F)F
    -14.5%	16.0%	.	.	.	?	0.9%	7.9%
- CC(=O)Nc1cccc(-c2nc3ccccc3s2)c1C
    -7.4%	28.6%	.	.	.	.	-10.5%	-0.9%
- Cc1ccc(N2C(=O)N(CC(=O)Nc3ccc([N+](=O)[O-])cc3)C(=O)C2C)cc1 (stereo not given)
    -1.5%	1.8%	.	.	.	.	3.6%	-0.3%
- O=C(c1ccccn1)N1CCN(S(=O)(=O)c2ccccc2)CC1
    .	-16.8%	.	.	8.1%[46.1 µM]	4.7%[46.1 µM]	26.4%	-0.3%
- COc1cc(C(C)=O)ccc1Oc1ncnc2c1cnn2-c1ccc(F)cc1
    -8.4%	-23.4%	-8.4%	?	-5.8%	-0.7%	0.5%	3.7%
- CC1(C)C2CCC(C2)C1(C)NC(=O)CN1CCN(Cc2ccccc2)CC1 (stereo not given)
    5.6%	?	.	.	-19.1%	-2.7%[46.1 µM]	-5.9%	0.5%
- CCN(CC)C(=O)CS(=O)(=O)CC(=O)Nc1cc(OCCOC)c(Cl)cc1Cl
    0.3%	-5.8%	.	.	-6.8%[46.1 µM]	17.8%[46.1 µM]	-1.3%	0.2%
- O=C(CN1C(=O)C2CC=CCC2C1=O)Nc1cc(C(F)(F)F)ccc1N1CCCC1 (stereo not given)
    .	-19.8%	.	.	24.4%	-11.3%[46.1 µM]	1.3%	-1.7%
- COc1ccccc1CNc1ccc(-c2nc(-c3cccnc3)no2)cc1[N+](=O)[O-]
    .	3.4%	-3.6%	8.1%	0.9%[46.1 µM]	-1.4%[46.1 µM]	.	.
- CCc1ccccc1N(CC(=O)N/N=C/c1ccc(OC(=O)OC)c(OC)c1)S(C)(=O)=O
    10.0%	?	-4.3%	?	-15.1%	-4.1%	14.3%	6.4%
- Cc1ccc(Cl)cc1N1CCN(S(=O)(=O)c2cn(C)c(C)n2)CC1
    .	2.1%	-1.4%	0.1%	0.5%[46.1 µM]	.	.	.
- O=C1C2CCCCC2C(=O)N1c1ccc(NC2CCCCC2)c([N+](=O)[O-])c1 (stereo not given)
    2.0%	7.7%	-4.9%	-12.0%	-1.8%	10.4%	-7.4%	15.1%
- COc1ccc(OC)c(CNC(=O)CCc2c(C)nc3c(c2C)c(=O)n(C)c(=O)n3C)c1
    .	-19.0%	0.1%	-8.7%	10.2%[46.1 µM]	6.9%[46.1 µM]	.	.
- Cc1nonc1OCCNC(=O)C12CC3CC(CC(C3)C1)C2
    0.3%	-21.3%	2.9%	-1.1%	0.9%	21.8%	15.2%	-7.2%
- NCCNc1ccc([N+](=O)[O-])cc1
    -3.0%	?	.	.	.	.	-10.1%	-0.5%
- COc1cccc(NC(=O)COC(=O)c2ccccc2F)c1
    6.0%	6.8%	-3.1%	-3.3%	-2.6%	1.9%	-31.3%	-2.6%
- Cc1cnc(NC(=O)c2ccc(Cl)nc2)s1
    -1.4%	20.2%	.	.	.	.	20.5%	-0.6%
- CCOC(=O)C1(Cc2cccc(OC)c2)CCN(Cc2cccn2-c2ccccn2)CC1
    -3.3%	-29.0%	.	.	?	?	?	-0.2%
- O=C(COC(=O)/C=C/c1ccco1)Nc1ncc(C(F)(F)F)cc1Cl
    -4.2%	-0.2%	-11.2%	2.6%	?	?	-15.7%	-2.8%
- CC(C)Cc1nc(N2CCN(C(=O)Cc3ccccc3)CC2)c(C#N)c2c1COC(C)(C)C2
    6.9%	.	-10.4%	14.9%	.	.	.	-0.9%
